# Screening results as filed in PubChem.
# GIV-Gai inh: inhibitors of GIV GBA-motif binding to rat Galpha-i3. Galpha-i3/FITC-GIV peptide fluorescence polarization, 90 min; hits give low values; scaled: aluminum fluoride 0%, vehicle 100%. AID 1224905. 0.42% of 210,000 active. P08753. percent of control (FP), % (test concentration not listed);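 active means replicate mean at 85% of control or lower, very high polarization wells dropped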;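 further: wells of about 15 µL received 100 nL stock; the first replicate is given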
# Target sequence (P08753 whole entry, looked up): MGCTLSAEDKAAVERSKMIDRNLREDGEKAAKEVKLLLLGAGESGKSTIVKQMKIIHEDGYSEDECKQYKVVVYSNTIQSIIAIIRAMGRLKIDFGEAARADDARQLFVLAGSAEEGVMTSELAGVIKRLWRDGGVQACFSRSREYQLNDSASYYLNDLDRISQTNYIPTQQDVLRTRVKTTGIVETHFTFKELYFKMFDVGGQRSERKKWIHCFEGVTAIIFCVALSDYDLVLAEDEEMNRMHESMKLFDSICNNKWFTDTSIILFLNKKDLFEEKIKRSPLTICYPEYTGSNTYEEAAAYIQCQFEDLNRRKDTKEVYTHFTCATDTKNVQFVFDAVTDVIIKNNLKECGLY
# Sa growth inh: inhibitors of Staphylococcus aureus growth at 42 °C. S. aureus RN4220 growth, OD600, 20 h; hits give low values. relative growth, % (test concentration not listed). 0.53% of 170,000 active. AID 720641;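 active means growth at 42 °C up to 50% and 20 or more points under that at 30 °C, or under 10% at both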;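 further: 300 nL library stock went into each well; scaled to the means of positive and negative controls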
# HCMV UL50-53 inh: cytomegalovirus nuclear egress complex inhibition; HTRF UL50-UL53 interaction, normalized percent inhibition; inhibition, % (concentration not given with the values); 0.15% of 190,000 active; AID 1918969;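 active means both replicates at 50% or more, plus weaker picks with an unusually low signal ratio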;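 further: stock transfer was 100 nL into about 20 µL; 0% = negative control wells and 100% = wells with untagged competitor protein; inactives centre near -12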
# Sa growth inh second temp: second read-out of Sa growth inh, no call of its own (marks repeat the call); relative growth, %; measured here: growth at 30 °C;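 optical density after 20 h as mean of two plates; 100% = untreated growth and lower means inhibition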
# * = called active by the depositor; x = no result given; & = joins results of further samples.
SMILES,GIV-Gai inh,Sa growth inh,Sa growth inh second temp,HCMV UL50-53 inh
CC(=O)N1CCOc2cc(S(=O)(=O)NCc3ccccc3Cl)c(C)cc21,98.9,90.6,86.2,x
CN1CCCc2cc(C(CNC(=O)COc3ccc(Cl)cc3)N3CCCC3)ccc21 (stereo not given),104.4,x,x,-6.1
O=C1C(SCCO)=C(SCCO)C(=O)c2ccccc21,96.0,x,x,-12.7&21.6&-35.3
CCN(Cc1cc(=O)n2oc(C)cc2n1)c1ccc(Cl)cc1,131.1,127.5,78.9,-28.0
Cc1nc(N2CCCC2=O)sc1C(=O)O,x,106.6,90.1,-18.6
O=c1c2c(nc3c(-c4ccccc4)c[nH]n13)CCC2,108.3,0.1*,-0.3*,-10.1
CCc1ccc(Oc2coc3cc(OC(=O)C4CCCCC4)ccc3c2=O)cc1,104.9,102.9,91.4,x
COc1cc2cc(C)c(=S)[nH]c2cc1OC,107.2,104.0,51.9,x
CC(=O)Oc1cccc(/C=C2\Sc3ccccc3C2=O)c1,x,94.0,90.3,-1.8
Clc1cccc(CNCCCSc2nnnn2-c2ccccc2)c1,99.0,106.7,88.3,-34.7
CCc1ccccc1NC(=O)c1cc(-c2ccc(Br)cc2)on1,97.9,104.7,83.7,-6.3
O=C(CCN1CCCCC1)NCC1OCCc2ccccc21 (stereo not given),x,92.4,89.6,-9.9
COc1ccc(C2C(C#N)=C(N)OC3=C2C(=O)CC(C)(C)C3)cc1COc1ccccc1Br (stereo not given),106.1,x,x,-17.6
COc1cc(Cl)c(C)cc1NC(=O)c1cc(S(=O)(=O)N2CCCC2)ccc1F,100.5,117.8,93.3,x
COc1ccc(N2CCN(C(=O)NC(=O)c3ccccc3)CC2)cc1,104.2,100.0,84.2,4.5
Cc1c(Cl)cccc1NC(=O)c1noc2c1CCCC2,98.2,104.2,83.6,-17.3
Cc1ccccc1CN1C(=O)C(O)(CC(=O)/C=C\c2ccccc2)c2ccccc21 (stereo not given),104.7,97.4,72.3,x
CC(C)(C)N1Sc2ccccc2NC1=S,95.2&105.1,83.5&69.8,78.4&65.0,-25.4
CCSc1nnc2n(C)c(=O)c3sccc3n12,101.7,x,x,-16.1
CCOC(=O)N1CCN(C(=O)CCn2c(=S)[nH]c3ccsc3c2=O)CC1,100.9,101.4,82.5,-19.5
CCS(=O)(=O)N(Cc1ccco1)Cc1nc(-c2cccs2)no1,99.8,95.9,84.0,-11.1
Cc1ccc(C)c(S(=O)(=O)N2CCc3cc4cc(C)ccc4nc32)c1,107.2,x,x,-14.3
CC1(C)N=C(N)NC(Nc2ccccc2Br)=N1,x,105.3,84.2,-23.2
Cc1ccc2onc(CNC(=O)NC3CCCC3)c2c1,97.3,88.7,85.6,-26.9
O=C(c1cnn(-c2ccccc2)c1-n1cccc1)N1CCC(Cc2ccccc2)CC1,105.5&100.4,103.1,91.6,-11.2&-30.3
COc1ccc(C2Nc3ccccc3C(=O)N2c2ccc(F)cc2)cc1COc1ccc(Cl)cc1 (stereo not given),98.8,x,x,-19.5
COc1ccc2cc3c(NCc4ccc(F)c(F)c4)n[nH]c3nc2c1,98.7,93.3,86.7,-30.6
CC1CCCc2c1nc(N)c(C#N)c2-c1ccccc1 (stereo not given),100.2,78.9,123.4,11.8
CN[C@@H]1[C@H](OC2[C@H](O[C@H]3[C@H](O)[C@@H](O)[C@H](N=C(N)N)[C@@H](O)[C@@H]3N=C(N)N)O[C@@H](C)[C@]2(O)C=O)O[C@@H](CO)[C@H](O)[C@H]1O (stereo not given in full),x,84.6,85.8,-39.5
COc1ccccc1C(=O)NC(C(C)C)C(C)C,101.4,97.1,93.2,-9.7
CNC(=S)N1CCc2sccc2C1c1ccc(Cl)cc1 (stereo not given),105.9,98.9,81.6,-40.0
CCOC(=O)Nc1nc2ccc(C)cc2[nH]1,99.3,94.0,84.7,-21.3
Cn1c(=O)c(/C(N)=N/OC(=O)c2ccccc2)cn(-c2ccccc2)c1=O,101.1,97.4,90.4,-13.8
CCc1cc2c(=O)c3c(cn4ccccc34)oc2cc1OC(C)=O,x,88.8,120.6,-2.9
CCn1nnnc1SCC(=O)c1ccc(NC(C)=O)cc1,102.2,99.5,92.9,-28.9
CC(C)n1c2ccc(Br)cc2c2nc3ccccc3nc21,106.5,93.2,91.7,-1.8
Cc1cccc(C(=O)OCC(=O)N2CC(C)CC(C)C2)c1O (stereo not given),x,104.5,104.1,27.9
COc1ccc(CNC(=O)c2cc3c(=O)[nH]c4ccccc4c3n2C)c(OC)c1,99.4,103.6,93.1,-7.7
Cc1cccc(CS(=O)(=O)c2ncc(Cl)c(C(=O)NCc3ccccc3)n2)c1,104.6,1.6*,23.1*,-1.1
O=C(NCCc1c[nH]c2ccccc12)c1ccc(S(=O)(=O)N2CCCCC2)cc1,x,103.6,84.1,-40.6
COc1ccc(C(=O)NC2=NCCS2)cc1S(=O)(=O)N1CCCCC1C (stereo not given),x,85.0,88.6,-20.2
CC1=C(C(=O)OCCc2ccccc2)C(c2ccc(Br)cc2)NC(=O)N1 (stereo not given),101.0,x,x,-1.2
O=c1oc2cc(Oc3ncnc4c3oc3ccccc34)ccc2c2c1CCC2,x,104.1,90.7,-11.9
CCCSc1nsc(NC(=O)CCc2nc3ccccc3c(=O)[nH]2)n1,x,90.6,82.7,-26.2
CSc1nc(N)nc2sc3c(O)cc(=O)[nH]c3c12,108.2,78.2,67.4,-52.7
Cc1c(C)c2cc3c(c(C)c2oc1=O)OCN(CCc1ccc(F)cc1)C3,95.0,86.3,88.7,-12.1
CC(C)OC(=O)C1C2C=CC3(CN(CC4CCCO4)C(=O)C13)O2 (stereo not given),99.4,95.8,89.0,1.2
CCC(CO)NC(=O)c1cc(OC)c(OC)c(OC)c1 (stereo not given),105.8,97.6,80.1,0.6
CCOC(=O)c1c(C)oc2ncnc(NCC(C)O)c12 (stereo not given),103.2,x,x,-8.1
O=S(=O)(Nc1cccc(C2OCCCO2)c1)c1ccccc1,x,92.8,92.7,-16.2
Cc1cccc(-c2nnc(SCC(=O)N3CCCCC3)o2)c1,107.9,97.5,97.6,2.6
O=S1(=O)CCC(N=Nc2c(O)n(Cc3ccccc3)c3ccccc23)C1 (stereo not given),x,108.7,104.4,6.6
Cc1cc2ncc(C(=O)/C=C/N(C)C)c(C)n2n1,102.0,102.5,87.4,-65.4
COc1ccc(S(=O)(=O)Nc2ccccc2C(=O)NCc2ccco2)cc1,98.8,116.0,92.6,x
O=c1cc(Nc2ccc3c(c2)OCO3)[nH]c(=O)n1-c1ccc(Br)cc1,102.4,106.5,73.0,x
CN(CC(=O)NCc1ccccn1)S(=O)(=O)c1cc(Br)cnc1N,97.1,88.9,89.3,x
OCC(C#CCN1CCCCC1)NCc1ccccc1 (stereo not given),x,93.2,96.7,1.8
O=C(Cn1ncc2c1-c1ccccc1OC2)NCCc1ccsc1,104.4,90.5,78.7,2.1
Cc1nc(C(F)(F)F)ccc1C(=O)NCC1CC1,101.3,98.1,87.3,-5.8
O=C(Cn1nnc(-c2ccccc2)n1)N/N=C/c1ccc(N2CCOCC2)s1,x,86.7,87.7,-26.8

# Whole records, looked up by structure.
# Shown for `CCOC(=O)c1c(C)oc2ncnc(NCC(C)O)c12` (stereo not given) → GIV-Gai inh = 103.2; Sa growth inh = x; Sa growth inh second temp = x; HCMV UL50-53 inh = -8.1
# Shown for `Cc1cccc(C(=O)OCC(=O)N2CC(C)CC(C)C2)c1O` (stereo not given) → GIV-Gai inh = x; Sa growth inh = 104.5; Sa growth inh second temp = 104.1; HCMV UL50-53 inh = 27.9
# Shown for `CC(=O)Oc1cccc(/C=C2\Sc3ccccc3C2=O)c1` → GIV-Gai inh = x; Sa growth inh = 94.0; Sa growth inh second temp = 90.3; HCMV UL50-53 inh = -1.8

# Structures from the list above that contain a furan ring, fused or not:
SMILES,GIV-Gai inh,Sa growth inh,Sa growth inh second temp,HCMV UL50-53 inh
CCS(=O)(=O)N(Cc1ccco1)Cc1nc(-c2cccs2)no1,99.8,95.9,84.0,-11.1
O=c1oc2cc(Oc3ncnc4c3oc3ccccc34)ccc2c2c1CCC2,x,104.1,90.7,-11.9
CCOC(=O)c1c(C)oc2ncnc(NCC(C)O)c12 (stereo not given),103.2,x,x,-8.1
COc1ccc(S(=O)(=O)Nc2ccccc2C(=O)NCc2ccco2)cc1,98.8,116.0,92.6,x

# New compounds follow.
SMILES,GIV-Gai inh,Sa growth inh,Sa growth inh second temp,HCMV UL50-53 inh
CCc1nn(CC(=O)NCc2ccc3c(c2)OCO3)c(=O)c2cc3sccc3n12,102.8,96.5,95.8,-1.8
Cn1nc(-c2ccc(N3CCCCC3)c(NC(=O)c3ccccc3)c2)c2ccccc2c1=O,104.0,94.0,89.0,x
Cc1cc(C)c(C(=O)N2CCCC(C(=O)N3CCC(C)CC3)C2)[nH]1 (stereo not given),100.5,x,x,-8.7
COC(=O)c1cc(S(=O)(=O)NCCC(=O)Nc2cc(Cl)ccc2C)cn1C,104.2,x,x,-8.8
O=S1(=O)CC(Sc2ccccc2)c2ccccc21 (stereo not given),106.0,114.2,88.7,-3.9
CC(=O)N(Cc1cccs1)C1CCOC(C)(C)C1 (stereo not given),103.3,103.7,96.4,-8.0
COc1ccc(Nc2ncnc3onc(-c4ccc(Cl)cc4)c23)cc1Cl,104.7,98.0,90.4,17.0
C=CCn1c(=N)n(CC(=O)c2cccs2)c2ccccc21,99.5,96.2,88.8,-5.7
COc1ccc(-c2nc3c4ccccc4[nH]c(=O)n3n2)cc1,x,130.5,87.1,-13.7
COc1ccccc1N1CCN(C(=O)Cn2nc(C(F)(F)F)c3c2CCC3)CC1,102.0,93.6,83.2,-42.5
CC(C)(C)C1CCC(=NNc2ccc(C(=O)O)cc2)CC1 (stereo not given),x,60.4,85.7,-29.3
C/C(N)=C(/C#N)C(=O)Cn1nnc2ccccc2c1=O,x,77.8,88.7,-103.3
O=C(O)CC1(CC(=O)NCc2csc(-c3cccs3)n2)CCCCC1,100.7,117.1,90.8,-37.1
CSc1nnc2c(n1)OC(/C=C/c1ccco1)Nc1ccccc1-2 (stereo not given),102.7,88.4,58.4,-20.2
CCCCN(Cc1ccccc1)S(=O)(=O)c1cc(Br)cc2c1N(C(=O)C1CC1)CC2,99.8,105.4,97.3,-32.2
CC(=O)Nc1ccc(SC(=O)c2cc(C)n(Cc3ccc(C)cc3)n2)cc1,105.1,111.4,70.8,-5.7
Cc1ccc(S(=O)(=O)c2nc(Cc3ccccc3)oc2N2CCC(C)CC2)cc1,102.9,x,x,-11.3
O=C(CN1CCn2nc(-c3ccccc3)cc2C1=O)NCCCN1CCOCC1,109.6,x,x,-3.8
CC1CCC(NC(=O)C2(C)Cn3c(cc4occc43)C(=O)N2C2CCCCC2)CC1 (stereo not given),104.3,x,x,-13.7
COc1ccc2c(c1)CCc1c-2n[nH]c1C(=O)N1CCN(C2CCCCC2)CC1,96.5,x,x,-20.8

# Structures listed so far that have a cyano group (three):
SMILES,GIV-Gai inh,Sa growth inh,Sa growth inh second temp,HCMV UL50-53 inh
COc1ccc(C2C(C#N)=C(N)OC3=C2C(=O)CC(C)(C)C3)cc1COc1ccccc1Br (stereo not given),106.1,x,x,-17.6
CC1CCCc2c1nc(N)c(C#N)c2-c1ccccc1 (stereo not given),100.2,78.9,123.4,11.8
C/C(N)=C(/C#N)C(=O)Cn1nnc2ccccc2c1=O,x,77.8,88.7,-103.3

# New compounds follow:
SMILES,GIV-Gai inh,Sa growth inh,Sa growth inh second temp,HCMV UL50-53 inh
Cc1cc2nc(COc3cc(NC(=O)c4ccc(C(C)(C)C)cc4)ccc3C)cc(=O)n2o1,100.5,x,x,-5.7
CC(=O)Nc1cccc(-n2nnc(SCC(=O)c3ccc4c(c3)OCCCO4)n2)c1,102.9,83.7,61.5,-60.8
CC1CCCC(C)N1C(=O)COC(=O)c1ccc(Cl)cc1Cl (stereo not given),x,102.2,89.2,-19.0
CCN(CC)C(=O)c1cc(O)cc(O)c1,100.4,84.3,90.9,-5.2
Cc1ccccc1C(=O)NC(=O)Nc1ccc(-n2nc(C(F)(F)F)cc2C(F)(F)F)cc1,102.9,98.8,90.1,-7.2
COc1ccc(C(=O)On2c(C3CCCCC3)nc3ccccc3c2=O)cc1,98.9,x,x,-10.1
O=S(=O)(c1cccc(Cl)c1)c1nnn2c1nc(NCC1CCCO1)c1sccc12 (stereo not given),106.0,x,x,8.0
O=C(Nc1ccc(F)c(F)c1)c1cc(S(=O)(=O)NC2CCCC2)ccc1F,109.7,95.6,104.8,x
CN(C)c1ccc(/C=N/n2ncc3ccccc32)cc1,x,77.0,96.1,-8.4
COc1cc(C2C(C(=O)c3ccco3)=C(O)C(=O)N2CC2CCCO2)ccc1O (stereo not given),101.1,90.7,87.4,-15.0
O=C1c2ccccc2-c2cccc(C(=O)N3CCCCC3)c21,100.7,101.3,88.7,-136.2
COc1cc(C2NC(=O)NC(C)=C2C(=O)OC2CCCCCC2)cc(Br)c1O (stereo not given),105.3,x,x,-10.0
NC(=O)N/N=C/c1cccn1-c1ccc(C(F)(F)F)cc1,105.7,92.5,81.1,-62.1
COC(=O)c1ccccc1NC(=O)c1cc(C)nc2c1c(C)nn2-c1ccc(C)cc1,100.8,87.4,81.8,x
O=C1CCSc2ccc(S(=O)(=O)N3CCCC(CN4CCc5ccccc5C4)C3)cc2N1 (stereo not given),108.1,x,x,-0.1
Cc1ccccc1CNC(=O)c1oc2c(c1C)-c1[nH]ncc1CC2,100.5,90.3,81.7,-6.0
O=c1c(S(=O)(=O)c2ccc(F)cc2)c[nH]c2c(F)cccc12,102.6,x,x,-26.2
